Sa growth 42C: S. aureus growth inhibition at 42 and 30 °C, primary screen, LtaS inhibitor project, RN4220, two temperatures. OD600, 20 h, 42 °C; active compounds read low. relative growth, % (no concentration beside the values). 170,000 tested, 0.53% active. AID 720641, 2013;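 active = growth at 42 °C up to 50% and 20 or more points under that at 30 °C, or under 10% at both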;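 note: 300 nL library stock went into each well; scaled to the means of positive and negative controls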
GIV Gai3 FP: inhibitors of GIV peptide binding to Galpha-i3, primary screen, biochemical, fluorescence polarization, FITC-GIV GBA peptide, rat Galphai3; Guanine nucleotide-binding protein G(i) subunit alpha-3 (Rattus norvegicus), P08753; 90 min; active compounds read low; scaled: aluminum fluoride 0%, vehicle 100%; percent of control (FP), % (concentration not given with the values); 210,000 tested, 0.42% active;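 active = replicate mean at 85% of control or lower, very high polarization wells dropped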;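 note: wells of about 15 µL received 100 nL stock; the first replicate is given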
Target sequence (P08753 whole entry, looked up): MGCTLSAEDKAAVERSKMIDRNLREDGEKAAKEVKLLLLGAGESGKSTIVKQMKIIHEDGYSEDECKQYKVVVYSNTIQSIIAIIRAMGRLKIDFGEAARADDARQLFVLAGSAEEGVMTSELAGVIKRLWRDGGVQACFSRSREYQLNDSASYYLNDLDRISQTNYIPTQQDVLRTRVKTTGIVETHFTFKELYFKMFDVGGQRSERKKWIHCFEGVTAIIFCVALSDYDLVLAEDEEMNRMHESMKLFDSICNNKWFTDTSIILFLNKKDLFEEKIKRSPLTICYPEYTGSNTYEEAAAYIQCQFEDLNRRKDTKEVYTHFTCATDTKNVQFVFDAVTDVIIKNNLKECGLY
HCMV NEC inh: inhibitors of HCMV UL50-UL53 interaction, biochemical, HTRF; inhibition, % (no concentration beside the values); normalized percent inhibition; HCMV UL50-UL53 nuclear egress complex (human cytomegalovirus); 190,000 tested, 0.15% active;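 active = both replicates at 50% or more, plus weaker picks with an unusually low signal ratio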;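 note: stock transfer was 100 nL into about 20 µL; 0% = negative control wells and 100% = wells with untagged competitor protein; inactives centre near -12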
Sa growth 42C second temp: also measured in Sa growth 42C; calls as there; relative growth, %; measured here: growth at 30 °C;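 optical density after 20 h as mean of two plates; 100% = untreated growth and lower means inhibition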
* hit, by the source's call; / = not tested or not shown.

SMILES | Sa growth 42C | Sa growth 42C second temp | GIV Gai3 FP | HCMV NEC inh
CCOC(=O)c1c(NC(=O)c2cc(=O)c3c(C)cc(C)cc3o2)sc(C(C)=O)c1C | 103 | 88 | 103 | -10
CCNC(=O)c1ccc2nc(N3CCCCC3)sc2c1 | 107 | 95 | 99 | /
O=C(OCc1sccc1Oc1ccccc1)c1ccc(Cl)cc1 | 97 | 91 | 109 | -22
O=c1[nH]c2ccccc2c(=O)n1NC(=S)NCc1ccco1 | 87 | 93 | / | -23
COc1ccc(C(=O)c2cn(CC(=O)Nc3ccc4c(c3)OCCO4)c3ccc(OC)cc3c2=O)cc1 | 91 | 87 | 102 | -36
COc1ccc(CNc2nc(-c3ccc(OC)cc3)cc(C(F)(F)F)n2)cc1 | 99 | 86 | 99 | -14
O=C(NN1C(=O)/C(=C/c2ccc(Br)cc2)SC1=S)c1ccccc1[N+](=O)[O-] | / | / | 103 | -24
CCc1ccc(NC(=O)N(Cc2ccco2)C(C)c2cccs2)cc1 (stereo not given) | 86 | 97 | 100 | /
Fc1cccc(NCc2cccn2-c2nnc(N3CCOCC3)s2)c1 | 99 | 86 | 107 | /
COc1cc(/C=N/NC(N)=O)ccc1OC(=O)c1cccs1 | 74 | 89 | / | -50
Cc1ccc(CNC(=O)CCC(=O)O)cc1 | 89 | 78 | 100 | -29
Cc1ccc(CN2C(=O)c3ccccc3Sc3ccc(C(=O)NC4CCCC4)cc32)cc1 | 111 | 90 | 104 | /
CCOC(=O)c1ccccc1NC(=O)C(c1ccccc1)N1Cc2ccccc2C1=O (stereo not given) | / | / | 109 | -6
Cc1ccc(Nc2nc3nonc3n3cnnc23)cc1Cl | 70 | 83 | 95 | -22
CCOC(=O)c1c(C#N)c(SC)nc2c1CCCC2 | 96 | 101 | 105 | -29
CC(Cc1c[nH]c2ccccc12)NC=O (stereo not given) | 106 | 90 | 108 | 3
O=C(Nc1cccc(C(F)(F)F)c1)c1cc(-c2ccc(Cl)s2)nc2ccccc12 | 107 | 96 | 108 | -16
O=C1N=c2ccccc2=C1c1c(O)n(-c2cccc(Br)c2)[nH]c1=O | 79 | 86 | / | -21
CC(=O)/C(C)=N/O | / | / | 107 | 13
O=c1c(Cl)c(Cl)cnn1-c1nc2ccccc2o1 | 89 | 70 | 97 | -39
CC(=NCc1ccncc1)C1=C(O)c2ccccc2C1=O | 93 | 84 | 104 | -59
CCCn1nc(NC(=O)c2cccc(Cl)c2)c2cc3cccc(C)c3nc21 | 115 | 87 | 103 | -18
CC(C)CC(O)(CC(C)C)C(=O)NNc1ccccc1 | 92 | 87 | 104 | -30
CCOc1cccc(-c2nc3ccccc3c(=O)o2)c1 | 103 | 89 | 103 | -22
Cc1ccc(N2C(=O)C(C)N=C2N(C)C2CCCCC2)cc1 (stereo not given) | 102 | 79 | 103 | -20
CC(C)N(CCC#N)C(=O)Nc1ccc(C(C)(C)C)cc1 | 104 | 94 | 101 | -29
Cc1occc1C(=O)C(C#N)=C1SCCCS1 | 98 | 95 | 100 | -80
CCOC(=O)C1=C(NC(C)C)C(=O)N(N(C)C)C1 | 114 | 93 | / | -12
Cc1ccccc1C(=O)Nc1ccc(OCc2cc(=O)n3ccccc3n2)cc1 | 101 | 93 | 91 | /
O/N=C/c1ccc(-c2cc(C(F)(F)F)cc(C(F)(F)F)c2)o1 | 102 | 102 | 103 | 17
CC1Cc2ccccc2N1C(=O)NC1CC(=O)N(c2ccccc2)C1 (stereo not given) | 110 | 81 | 98 | -36
Cc1onc(-c2ccccc2Cl)c1C(=O)Nc1cc2c(cc1N1CCOCC1)n(C)c(=O)n2C | / | / | 101 | -20
CCCOc1ccccc1-c1nc(SCC(=O)c2ccccc2)n[nH]1 | 99 | 101 | 104 | 22
CS/C(N)=N/N=C(\C)c1ccc(Br)cc1 | 88 | 79 | 106 | -28
Cc1ccc(/C=C/C(=O)N(C2=NC(C)CS2)c2ccc(Cl)cc2)o1 (stereo not given) | 98 | 96 | / | -22
CN(C)N=Nc1ccc(-c2cn(Cc3ccccc3)cn2)cc1 | 93 | 92 | 99 | -69

Exported in CSV form: part of the list above
Compound,Sa growth 42C,Sa growth 42C second temp,GIV Gai3 FP,HCMV NEC inh
Cc1onc(-c2ccccc2Cl)c1C(=O)Nc1cc2c(cc1N1CCOCC1)n(C)c(=O)n2C,/,/,101,-20
O/N=C/c1ccc(-c2cc(C(F)(F)F)cc(C(F)(F)F)c2)o1,102,102,103,17
CCCOc1ccccc1-c1nc(SCC(=O)c2ccccc2)n[nH]1,99,101,104,22
Cc1occc1C(=O)C(C#N)=C1SCCCS1,98,95,100,-80
CC1Cc2ccccc2N1C(=O)NC1CC(=O)N(c2ccccc2)C1 (stereo not given),110,81,98,-36
Cc1ccccc1C(=O)Nc1ccc(OCc2cc(=O)n3ccccc3n2)cc1,101,93,91,/
CN(C)N=Nc1ccc(-c2cn(Cc3ccccc3)cn2)cc1,93,92,99,-69

The results go on.
SMILES | Sa growth 42C | Sa growth 42C second temp | GIV Gai3 FP | HCMV NEC inh
COc1ccccc1NC(=O)c1c(NC(=O)c2ccccc2F)sc2c1CCC2 | 102 | 103 | 101 | 10
Cc1ccc(CNC(=O)CN2NS(=O)(=O)c3ccccc3C2=O)cc1 | 113 | 87 | / | -38
COc1ccc(-c2noc(CSc3nnc(CCc4ccccc4)n3C)n2)cc1OC | 92 | 77 | 104 | /
CSc1ncc(C(=O)N2CCN(c3cccc(Cl)c3)CC2)c(C)n1 | 81 | 87 | 109 | /
CC(C)Cn1c(-c2ccc(F)cc2)n[nH]c1=S | 103 | 87 | 107 | 0
CCOc1ccc(S(=O)(=O)N(CC(=O)Nc2cccnc2)c2ccccc2)cc1 | 102 | 54 | 107 | 7
CCOC(=O)c1cccc(NC(=O)CCc2nc3cccnc3n2-c2ccccc2)c1 | 93 | 103 | 110 | -5
CSCCC(=O)Nc1ccc(-c2ccccc2)cc1 | 100 | 83 | / | -15
CCc1c(C)nc2ncnn2c1N1CCN(c2ccccc2F)CC1 | / | / | 97 | -11
CCS(=O)(=O)Nc1cc(F)ccc1C | 94 | 102 | 102 | -26
COc1ccc(N2CCN(C(=O)c3cccc4ccccc34)CC2)cc1 | 99 | 90 | 103 | -6
CCOC(=O)c1sc(N)c(C#N)c1CSc1nnc(C2CC2)n1N | 111 | 95 | / | 13
CCn1ccc2cc(S(=O)(=O)N3CCCC(C(=O)N4CCN(C5CCCCC5)CC4)C3)ccc21 (stereo not given) | / | / | 104 | -18
CCOC(=O)N1CCc2c(sc3c2c(=O)n(Cc2ccccc2)c(=O)n3Cc2cccc(Cl)c2)C1 | 107 | 86 | 103 | -41
O=C(COc1ccccc1)Nc1ccnn1C1CCCC1 | / | / | 102 | -16
CCc1nnsc1C(=O)Nc1ccc(S(N)(=O)=O)cc1 | 83 | 85 | 100 | -25
Cc1cc(C)cc(NC(=O)Cn2cc(C(=O)c3ccncc3)c(=O)c3cc(C)c(C)cc32)c1 | 114 | 91 | 109 | /
CCOc1ccc2cc(-c3nnc(-c4cccc(OC)c4)o3)c(=O)oc2c1 | / | / | 103 | -10
CCNC(=S)N1CCN(CCN=CC2=C(O)CC(C)(C)CC2=O)CC1 | 87 | 97 | 102 | -19
CCOC(=O)C1CCCN(S(=O)(=O)c2cc(Br)cc3c2N(C(C)=O)CC3)C1 (stereo not given) | / | / | 106 | -28
COc1ccc2c(c1)CCC1C2CCC2(C)C(=O)CCC12 (stereo not given) | 117 | 92 | 107 | -19
COc1cccc(Nc2nc(-c3ccccc3)c3cc(C)ccc3n2)c1 | 100 | 83 | 106 | -55
CCOC(=O)Cn1c(-c2ccccn2)nc2ccccc21 | 114 | 90 | 104 | 3
O=C(Nc1ccccc1)NC1(C(=O)N2CCN(C(=O)c3ccco3)CC2)CCCCC1 | 97 | 73 | 102 | -2
Cc1ncc(-c2ccc(C)c(S(=O)(=O)N3CCc4ccccc4C3)c2)o1 | / | / | 112 | 3
OCc1ccccc1N=Cc1cccnc1 | 95 | 91 | / | -17
O=C(O)c1ccc(NC(=O)c2cc(S(=O)(=O)N3CCCCC3)c(Cl)cc2Cl)cc1 | 102 | 100 | 104 | 16
O=C(c1cc(-c2ccccc2)on1)N1CCN(c2ccccc2)CC1 | 95 | 99 | 104 | 2
N#Cc1ccc(S(=O)(=O)Nc2ccccc2Sc2nc3ccc(Cl)cc3s2)cc1 | 97 | 88 | 97 | -6
CC1CN(c2ccc(N)cc2C(=O)O)CC(C)O1 (stereo not given) | 88 | 89 | 95 | -14
O=C(OCC1CC(c2ccccn2)=NO1)c1ccc(Br)cc1 (stereo not given) | 97 | 95 | / | 0
Cc1ccc(C(=O)OCC2COc3ccccc3O2)cc1 (stereo not given) | 94 | 87 | / | -31
CCN(CC)S(=O)(=O)N1CCCC(C(=O)NCc2ccc(C)cc2)C1 (stereo not given) | 84 | 86 | 100 | /
COc1ccc(CNc2nc(-c3ccco3)nn2C(=O)CC(C)C)cc1 | 87 | 89 | 110 | 4
C=CCOc1c(Cl)cc(CNCCSc2nnnn2C)cc1OC | / | / | 107 | 14
COc1cc(-c2nc3c(cnn3-c3ccccc3)c(=O)[nH]2)cc(OC)c1OC | 90 | 90 | 100 | -4

Single records, as listed above. Order of values: Sa growth 42C | Sa growth 42C second temp | GIV Gai3 FP | HCMV NEC inh
Shown for `OCc1ccccc1N=Cc1cccnc1` → 95 | 91 | / | -17
Shown for `CC1CN(c2ccc(N)cc2C(=O)O)CC(C)O1` (stereo not given) → 88 | 89 | 95 | -14
Shown for `Cc1ccc(C(=O)OCC2COc3ccccc3O2)cc1` (stereo not given) → 94 | 87 | / | -31

Following part
SMILES | Sa growth 42C | Sa growth 42C second temp | GIV Gai3 FP | HCMV NEC inh
CC1CCCCN1CCCNC(=O)Cc1ccc(NC2=NC3CS(=O)(=O)CC3S2)cc1 (stereo not given) | 104 | 91 | 101 | -21
O=C(CSc1nnc(Cc2cc(=O)[nH]c(=O)[nH]2)n1-c1ccccc1)Nc1ccc2c(c1)OCO2 | 106 | 91 | 97 | -2
Cc1cc2c(cc1S(=O)(=O)N1CCCC(C(=O)N(C)C3CCCCC3)C1)OC(C)C(=O)N2 (stereo not given) | / | / | 102 | -5
CNc1c(=O)[nH]c(O)c2ccccc12 | 104 | 91 | 103 | -8
CC1(C)CC(NC(=S)NC(=O)c2ccco2)CC(C)(C)N1 | 106 | 91 | / | -3
O=C(CCC1N=C2c3ccccc3N=C(SCC(=O)Nc3ccccc3F)N2C1=O)NCc1cccs1 (stereo not given) | 104 | 92 | 108 | -18
Cc1cc(Nc2c(C(=O)N3CCCCC3)cnc3ccc(F)cc23)ccc1Br | / | / | 99 | -16
CCc1ccc(NC(=O)Cn2cnc3oc(C)c(C)c3c2=O)cc1 | / | / | 98 | -17
CCC(C)(C)NC(=O)/C=C/c1ccc(OC(F)F)c(OC)c1 | 107 | 82 | / | 5
Cc1cc(C(=O)Nc2nc(C34CC5CC(CC(C5)C3)C4)cs2)no1 | 156 | 95 | 102 | 1
Cc1ccc(NC(=O)Cn2c(=O)n(CCCCC(=O)NCCc3ccccc3)c(=O)c3ccccc32)cc1 | 102 | 91 | 99 | -7
CCCOc1nc(-c2ccccc2)cc(-c2ccccc2)n1 | 50 | 66 | / | -8
CS(=O)(=O)c1ccc(NC(=O)CC2OC(=O)c3ccccc32)cc1 (stereo not given) | 104 | 80 | / | -23
COc1ccc(Cl)cc1NC(=O)c1oc2ccc(S(=O)(=O)N3CCCCC3)cc2c1C | 114 | 93 | 99 | /
O=C1CC(c2ccccc2)Sc2ccccc2N1Cc1ccccc1 (stereo not given) | 96 | 59 | 102 | /
O=C(O)C(Cc1c[nH]c2ccccc12)N1C(=O)CCC1=O (stereo not given) | 82 | 92 | / | -3
Cc1ccc(-c2cc(C(=O)Nc3cccc4c3CCCC4)[nH]n2)cc1C | 100 | 93 | 104 | /
COc1ccccc1C(=O)Nc1ccon1 | 109 | 98 | 110 | -9
O=C(CC(c1ccccc1)c1cc(Cl)ccc1O)N1CCOCC1 (stereo not given) | 101 | 85 | 98 | -23
O=C(O)CC1C=CS(=O)(=O)C1 (stereo not given) | 106 | 88 | / | -6
C=CCN1C(=O)C2(C(C#N)=C(N)Oc3ccccc32)c2c1c1ccccc1oc2=O (stereo not given) | 102 | 104 | 102 | 10
O=C(c1ccc2c(c1)N(Cc1cccc(Cl)c1)C(=O)c1ccccc1S2)N1CCOCC1 | 87 | 69 | 105 | /
CCOC(=O)NC(=S)N1CCN(c2ccccc2)CC1 | 103 | 82 | / | -14
CCN(CC)C(=O)c1ccc2c(c1)NC(=O)/C(=C/c1ccccc1)S2 | 97 | 77 | 104 | /
CCCCC(=O)Nc1nn2c(COc3ccc(C)cc3)nnc2s1 | 99 | 93 | 101 | 3
CCOC(=O)CC(NC(=O)Cn1nnc(-c2ccccc2C)n1)c1ccc(OC)cc1 (stereo not given) | 91 | 92 | 101 | 3
COc1ccc(N2CCN(C(=O)c3cn(C4CCCCC4)c(=O)c4c3c3ccccc3n4C)CC2)cc1 | 100 | 86 | 100 | -14

Source: PubChem BioAssay (ICCB-Longwood Screening Facility, Harvard Medical School)
